Compound activity (PubChem BioAssay)
Mtb betalactam – beta-lactam sensitization of Mtb H37Rv | M. tuberculosis H37Rv growth with meropenem, percent inhibition; hits of this screen are not shown here | inhibition, % at 25 µM | hit rate 0.27% among 330,000;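 active means about 74% or more and at least 40 points above the plate without the antibiotic, then above 30% in a dose series; inconclusive means first-round hits that could not be retested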;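 further: growth measured after seven days incubation then overnight dye step; 0% = bacteria only wells and 100% = bacteria with antibiotic; twin plates without the antibiotic show which effects depend on it; some results filed as inactive read as strong as hits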
YopH inh – inhibitors of Yersinia enterocolitica YopH tyrosine phosphatase; fluorescence Ex485/Em525; inhibition, %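 (about 10 µM by stock and volumes)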; hit rate 0.16% among 140,000; AID 898;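 active means inhibition of 50% or more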;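 further: controls were vehicle for no effect and minimum signal wells for full effect; inactives centre near -20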
RecA splice inh – inhibitors of M. tuberculosis RecA intein splicing; P9WHJ3; cell-free RecA intein splicing, fluorescence; inhibition, %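 (about 9 µM by stock and volumes)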; hit rate 0.75% among 290,000; AID 2221; in the data active means inhibition above about 30%; inconclusive means no clear call, values can overlap the other calls;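 further: 0% = vehicle wells and 100% = reference inhibitor control wells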
Target sequence (P9WHJ3 whole entry, looked up, canonical isoform): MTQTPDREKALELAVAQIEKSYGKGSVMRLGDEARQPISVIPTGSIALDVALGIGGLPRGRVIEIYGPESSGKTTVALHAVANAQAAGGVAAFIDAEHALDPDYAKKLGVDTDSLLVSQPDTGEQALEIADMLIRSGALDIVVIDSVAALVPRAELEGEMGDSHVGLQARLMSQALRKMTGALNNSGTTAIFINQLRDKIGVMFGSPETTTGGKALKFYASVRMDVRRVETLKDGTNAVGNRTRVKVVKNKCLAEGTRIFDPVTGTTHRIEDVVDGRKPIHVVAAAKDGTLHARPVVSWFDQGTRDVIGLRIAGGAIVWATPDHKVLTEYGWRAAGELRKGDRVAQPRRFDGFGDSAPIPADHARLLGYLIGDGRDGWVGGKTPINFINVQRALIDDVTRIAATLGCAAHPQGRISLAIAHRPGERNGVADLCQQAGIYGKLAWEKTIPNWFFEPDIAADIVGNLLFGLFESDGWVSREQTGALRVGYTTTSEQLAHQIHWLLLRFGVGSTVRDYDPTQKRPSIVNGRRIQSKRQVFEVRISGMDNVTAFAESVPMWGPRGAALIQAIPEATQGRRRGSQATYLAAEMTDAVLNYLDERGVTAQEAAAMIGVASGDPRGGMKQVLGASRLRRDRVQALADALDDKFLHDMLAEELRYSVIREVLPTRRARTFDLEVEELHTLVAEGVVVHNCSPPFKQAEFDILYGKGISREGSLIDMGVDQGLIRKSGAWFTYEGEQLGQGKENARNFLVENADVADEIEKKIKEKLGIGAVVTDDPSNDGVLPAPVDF
Mtb H37Rv – M. tuberculosis H37Rv growth inhibitors, H37Rv strain (AID 1626); hit rate 0.95% among 220,000; inhibition, % at 10 µM; hits with a dose series show IC50 in µM; M. tuberculosis H37Rv growth inhibition; higher % means a stronger effect;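 active means confirmed in a dose series; inconclusive means inhibition above 80% but not taken into the dose series; inactive means below 80% or under 30% at every dose of the series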;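 further: bacteria incubated seven days before Alamar blue readout; 0% = bacteria only wells and 100% = bacteria with antibiotic wells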
Arbovirus anti – antivirals against arbovirus infection; arbovirus infection cell-based antiviral screen; hit rate 0.37% among 200,000; inhibition, % at 10 µM;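 active means inhibition from about 30%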;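 further: bluetongue infection of BSR cells; cell survival read as ATP light after 72 h; 0% = infected wells without compound and 100% = uninfected wells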
Arbovirus anti repeat – also measured in Arbovirus anti; calls as there; inhibition, %; measured here: 10K subset replicate screen; many hits read low in the repeat;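 first of two repeat runs on a subset; 0% = infected and 100% = uninfected wells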
* = called active by the depositor; ? = inconclusive; nt = not tested or not shown. This is a subset (hit frequency here may not be typical).

SMILES	Mtb betalactam	YopH inh	RecA splice inh	Mtb H37Rv	Arbovirus anti	others
COCCn1c(SCc2ccc(OC)c(F)c2)nc2ccccc2c1=O	5	nt	3.3	3%	19
C=CCc1c(C)nc2c(OC)cccc2c1Cl	-2	nt	0.0	8%	-9
COCCNC(=O)C(c1ccccc1)N(CCOC)C(=O)Cn1nnc2ccccc21 (centres undefined)	nt	-41	nt	1%	-2
COc1cccc(-c2nc(CS(=O)(=O)CC(=O)NCCC(C)C)c(C)o2)c1	-4	-10	0.6	-2%	-2	Arbovirus anti repeat=3
O=C1NC(=Nc2cccc([N+](=O)[O-])c2)SC1(CO)CO	-6	nt	-0.6	nt	nt
Cc1ccc(C(=O)NC2CCN(CC(=O)NC3CCC(C)CC3)CC2)cc1 (centres undefined)	8	nt	3.1	nt	nt
COc1ccc(S(=O)(=O)N2CCc3ccccc32)cc1C(=O)O	4	nt	0.1	nt	nt
COc1cc(C)nc(N(C)C(C)=O)n1	1	-24	-0.6	-3%	9
Cc1ccc(Cc2cnc(NC(=O)c3cccs3)s2)cc1	-4	-72	0.0	5.9µM*	-17
CCCCC1=CC2=CC(=O)C(C)(OC(=O)C3CCCC3)C(=O)C2=CO1 (centres undefined)	2	nt	1.0	-2%	nt
CCN(C(=O)CSc1nc2cc(Cl)ccc2c(=O)n1CC(C)C)C1CCS(=O)(=O)C1 (centres undefined)	-6	nt	6.8	nt	nt
COc1ccccc1Cn1c(C(C)C)nc2ccccc21	2	nt	7.9	-5%	nt
CN1C(=O)N(C)C(=O)C2(Sc3ccccc3C2=O)C1=O	1	-17	nt	-10%	-2
CCOc1ccc(NC(=O)CN(c2ccc(OCC)cc2)S(=O)(=O)c2c(C)[nH]c(=O)[nH]c2=O)cc1	88	nt	2.1	?	-5
CS(=O)(=O)N1CCN(c2ccc(NC(=O)CSc3ccc(Cl)cc3)cc2)CC1	10	-13	3.8	-1%	3
NC(=O)c1cc(C(N)=O)nc(Cl)n1	-7	nt	-1.1	-2%	nt
C/C=C/C(=O)N1CC2(CC(c3cccc(NC(=O)CC)c3)=NO2)C[C@H]1C(N)=O (some centres undefined)	-8	nt	0.7	-9%	nt
CCCN(CCC)CCCNC(=O)c1cc2c(-c3ccc(OC)c(OC)c3)nn(C)c2s1	-4	nt	0.7	nt	nt
CC1CCCCC1NC(=O)C1CCN(C(=O)c2sccc2-n2cccc2)CC1 (centres undefined)	0	-39	-3.5	-6%	0	Arbovirus anti repeat=3
Cc1ccc(-c2csc(/C=C3\SC(C)C(=O)N3CC(=O)Nc3ccccc3F)n2)cc1 (centres undefined)	4	nt	-4.1	-5%	nt
O=C(Cn1ccc(C(F)(F)F)n1)N/N=C/c1ccc2c(c1)OCO2	4	-25	-3.1	3%	-2
Cc1ccc(NC(=O)Cn2c(=O)c3cccn3c3ccccc32)cc1	14	nt	-7.9	nt	nt
CCOCCCNS(=O)(=O)c1ccc2c(c1)oc(=O)n2CC(=O)OCC	-1	-10	-1.2	-6%	3
C=CCn1cnc2scc(-c3ccccc3)c2c1=O	-13	-19	2.4	-1%	-9	Arbovirus anti repeat=-6
O=C(Nc1nccs1)c1ccc(Br)o1	9	8	-1.4	4%	0
The list continues.
SMILES	Mtb betalactam	YopH inh	RecA splice inh	Mtb H37Rv	Arbovirus anti	others
CCCn1c(SCC(=O)NCCc2ccccc2)nnc1-c1cccnc1	-2	-9	0.5	-8%	1
O=C(Cc1ccc2c(c1)CCCC2)Nc1ccccc1Cl	10	-18	5.8	20%	12
COc1ccc(OC(C)C(=O)N2CCN(c3ccccn3)CC2)cc1 (centres undefined)	-10	-18	0.9	-12%	4
O=C(c1ccc2ncsc2c1)N1CCN(c2nc3ccccc3s2)CC1	-1	nt	0.1	nt	nt
COc1cc(/C=N/N(C)c2ccccc2)cc(Cl)c1O	96	-14	4.6	-13%	-6
O=C(/C=C/c1cccc([N+](=O)[O-])c1)c1ccc([N+](=O)[O-])o1	100	nt	6.4	nt	nt
CCOc1ccc(CCNC(=O)C(C)N2C(=O)CC(C)(C)Sc3ccccc32)cc1 (centres undefined)	-3	nt	7.9	nt	nt
CC(C)Oc1ccc(C(CC(=O)O)NC(=O)Cc2ccc(Cl)cc2)cc1 (centres undefined)	-10	nt	3.4	nt	nt
CCOc1ccc(Nc2nc(N)nc(CCl)n2)cc1	99	nt	8.9	23µM*	nt
Cc1cccc(Cn2c(=O)n(Cc3ccco3)c(=O)c3ccccc32)c1	-4	-23	-3.3	3%	2
COc1ccccc1S(=O)(=O)Cc1ccc(C(=O)NC2CC2)o1	-10	nt	2.6	nt	nt
O=C(CSc1nc2ccccc2c(=O)n1Cc1ccco1)c1ccc(F)cc1	-4	-29	1.5	-4%	2
Cc1nc2ccc(Nc3nc4cc(S(=O)(=O)N5CCOCC5)ccc4o3)cc2s1	83	-18	-0.5	56%	-37
c1ccc(-c2cn3cccnc3n2)cc1	-11	-16	-2.2	-10%	6	Arbovirus anti repeat=1
C=CCn1c(CSc2nc3ccccc3s2)n[nH]c1=S	4	-26	2.5	2%	7
COc1ccc2c(c1)-c1c(ssc1=S)C(C)(C)N2	-1	-21	16	0%	-11
NNC(=O)c1csc(Cc2c(Cl)sc3ccc(Cl)cc23)n1	-4	nt	3.4	5%	nt
CC(C)NC(=O)c1cccc2c1-c1ccccc1C2=O	-3	nt	-1.4	nt	nt
O=C(Nc1ccccc1C(F)(F)F)C1CC(=O)N(c2ccccc2F)C1 (centres undefined)	-7	-151	0.6	-2%	3
Cc1ccc(S(=O)(=O)N2CCN(C(=O)CNC(=O)c3sc4ccccc4c3Cl)CC2)cc1	-10	nt	1.2	nt	nt
Cc1cc(Cl)ccc1OC(C)C(=O)O (centres undefined)	-2	-24	-3.8	1%	1
COc1ccc(/C=C(/NC(=O)/C=C/c2ccccc2)C(=O)O)cc1	-2	nt	6.5	6%	1
Cc1ccc(S(=O)(=O)N(c2nc(NC(C)C)nc(NC(C)C)n2)n2cnnc2)cc1	-4	6	0.0	4%	-2
CC1(c2ccccc2)NC(=O)N(CC(=O)Nc2ccc(N3CCOCC3)cc2N2CCOCC2)C1=O (centres undefined)	-13	nt	8.2	nt	nt
COC(=O)Nc1ccccc1C(=O)N1CCC(O)(c2ccc(Cl)cc2)CC1	-4	-40	1.1	-5%	5

At a glance, 22 of the compounds above:
SMILES	Mtb betalactam	YopH inh	RecA splice inh	Mtb H37Rv	Arbovirus anti	others
CCCn1c(SCC(=O)NCCc2ccccc2)nnc1-c1cccnc1	-2	-9	0.5	-8%	1
O=C(Cc1ccc2c(c1)CCCC2)Nc1ccccc1Cl	10	-18	5.8	20%	12
COc1ccc(OC(C)C(=O)N2CCN(c3ccccn3)CC2)cc1 (centres undefined)	-10	-18	0.9	-12%	4
O=C(c1ccc2ncsc2c1)N1CCN(c2nc3ccccc3s2)CC1	-1	nt	0.1	nt	nt
COc1cc(/C=N/N(C)c2ccccc2)cc(Cl)c1O	96	-14	4.6	-13%	-6
O=C(/C=C/c1cccc([N+](=O)[O-])c1)c1ccc([N+](=O)[O-])o1	100	nt	6.4	nt	nt
CCOc1ccc(CCNC(=O)C(C)N2C(=O)CC(C)(C)Sc3ccccc32)cc1 (centres undefined)	-3	nt	7.9	nt	nt
CC(C)Oc1ccc(C(CC(=O)O)NC(=O)Cc2ccc(Cl)cc2)cc1 (centres undefined)	-10	nt	3.4	nt	nt
CCOc1ccc(Nc2nc(N)nc(CCl)n2)cc1	99	nt	8.9	23µM*	nt
Cc1cccc(Cn2c(=O)n(Cc3ccco3)c(=O)c3ccccc32)c1	-4	-23	-3.3	3%	2
COc1ccccc1S(=O)(=O)Cc1ccc(C(=O)NC2CC2)o1	-10	nt	2.6	nt	nt
O=C(CSc1nc2ccccc2c(=O)n1Cc1ccco1)c1ccc(F)cc1	-4	-29	1.5	-4%	2
Cc1nc2ccc(Nc3nc4cc(S(=O)(=O)N5CCOCC5)ccc4o3)cc2s1	83	-18	-0.5	56%	-37
c1ccc(-c2cn3cccnc3n2)cc1	-11	-16	-2.2	-10%	6	Arbovirus anti repeat=1
C=CCn1c(CSc2nc3ccccc3s2)n[nH]c1=S	4	-26	2.5	2%	7
COc1ccc2c(c1)-c1c(ssc1=S)C(C)(C)N2	-1	-21	16	0%	-11
NNC(=O)c1csc(Cc2c(Cl)sc3ccc(Cl)cc23)n1	-4	nt	3.4	5%	nt
CC(C)NC(=O)c1cccc2c1-c1ccccc1C2=O	-3	nt	-1.4	nt	nt
O=C(Nc1ccccc1C(F)(F)F)C1CC(=O)N(c2ccccc2F)C1 (centres undefined)	-7	-151	0.6	-2%	3
Cc1ccc(S(=O)(=O)N2CCN(C(=O)CNC(=O)c3sc4ccccc4c3Cl)CC2)cc1	-10	nt	1.2	nt	nt
Cc1cc(Cl)ccc1OC(C)C(=O)O (centres undefined)	-2	-24	-3.8	1%	1
COc1ccc(/C=C(/NC(=O)/C=C/c2ccccc2)C(=O)O)cc1	-2	nt	6.5	6%	1

Of the compounds above, two have an NH in an aromatic ring:
SMILES	Mtb betalactam	YopH inh	RecA splice inh	Mtb H37Rv	Arbovirus anti	others
CCOc1ccc(NC(=O)CN(c2ccc(OCC)cc2)S(=O)(=O)c2c(C)[nH]c(=O)[nH]c2=O)cc1	88	nt	2.1	?	-5
C=CCn1c(CSc2nc3ccccc3s2)n[nH]c1=S	4	-26	2.5	2%	7

Continuation:
SMILES	Mtb betalactam	YopH inh	RecA splice inh	Mtb H37Rv	Arbovirus anti	others
Cc1nc2ccc(NC(=O)N3CCCCC3)cc2nc1C	4	-20	0.4	-1%	14
COc1cc(-c2nc3n(n2)C(c2ccncc2)C(C(N)=O)=C(C)N3)cc(OC)c1OC (centres undefined)	-1	-24	-3.9	-6%	1
COc1cc2ccccc2cc1C(=O)Nc1nc(C)c(C(C)=O)s1	0	nt	-2.4	nt	nt
CC(C)Cc1nc2oc3c(=O)[nH]cnc3c2c2c1CCCC2	?	4	-0.4	9%	6
COc1cccc(NC(=O)Nc2cccnc2)c1	-2	nt	4.5	6%	3
O=C(Nc1ccc(S(=O)(=O)Nc2ncccn2)cc1)c1ccccc1NS(=O)(=O)c1ccc(F)cc1	0	nt	0.0	2%	3
CCOc1ccc2ncc(S(=O)(=O)c3ccccc3)c(N3CCC4(CC3)OCCO4)c2c1	26	-13	0.2	-1%	-21
N#Cc1ccsc1NC(=O)CSc1nnc(-c2ccccc2)o1	-9	13	1.4	-11%	2
COc1ccccc1N1CCN(C(=O)c2ccc(Cn3c(=S)[nH]c4cc5c(cc4c3=O)OCO5)cc2)CC1	64	nt	nt	2%	5
Cc1nn(Cc2c(F)c(F)c(F)c(F)c2F)c(C)c1NC(=O)c1ccc(COc2ccc(F)cc2)o1	36	-22	3.5	13%	-12
COC(=O)c1cc(CSc2nc3ccc(C)cc3[nH]2)oc1C	20	-19	7.0	-12%	2	Arbovirus anti repeat=15
N=C1CCC(=N)c2c1c(O)c1ccccc1c2O	7	nt	91*	-9%	nt
CCOC(=O)c1cc(NC(=O)c2ccccc2)c(=O)n2c1oc1ccccc12	2	nt	0.3	6%	-8
CN(C(=O)COC(=O)c1cc(NS(=O)(=O)c2cc([N+](=O)[O-])ccc2Cl)ccc1O)C1CCCCC1	2	-12	7.6	-7%	0
C=C1CCN([C@H](C(=O)NCc2ccc(Cl)c(Cl)c2)C(C)C)S(=O)(=O)c2ccccc21	2	nt	4.9	18%	nt
CC(=O)N1C(=O)c2cccc3cccc(c23)C(=O)N1C(C)=O	-11	-28	1.9	2%	12
O=C(Nc1ncccc1O)c1ccc(S(=O)(=O)N2CCCC2)cc1	-5	nt	0.0	nt	nt
O=C(Nc1ccccc1)N1CC=C(c2ccccc2)CC1	20	-19	0.7	-6%	1
COc1ccc(O)c(CNc2ccccc2F)c1	-1	nt	-1.8	-1%	4
Cc1cc(C(=O)COC(=O)CNC(=O)c2ccccc2)c(C)n1CC1CCCO1 (centres undefined)	-3	nt	4.5	-7%	-8
Oc1oc(-c2ccc(Br)cc2)nc1C=Nc1ccc(Br)cn1	8	nt	-2.0	3%	-8
COc1ccc(-c2cc(C(F)(F)F)nc(S(C)(=O)=O)n2)cc1	96	-16	72*	-12%	-32
CC(=O)N1c2ccc(S(=O)(=O)NCC3CCC(C(=O)NCc4ccccc4)CC3)cc2CC1C (centres undefined)	-6	nt	0.4	nt	nt
CN(C(=O)c1c[nH]c(=O)cc1C(F)(F)F)c1ccc(Cl)cc1	-9	nt	nt	-7%	nt
CC1CCCN(S(=O)(=O)c2ccc(S(=O)(=O)NC(C)c3cccs3)cc2)C1 (centres undefined)	4	-4	nt	6%	5
